NPYLR7 agonist = mosquito NPYLR7 agonism; HEK293T NPYLR7/Galpha15, GCaMP6s calcium fluorescence; activation, % at 10 µM; actives 0.15% (n = 270,000); AID 1259423; in the data active = activation above about 40%;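 note: 0% = vehicle and 100% = reference agonist at the receptor; some compounds past the cut are filed as inactive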
NPYLR7 agonist max-min = further read-out of NPYLR7 agonist, marked with its call; activation, %; measured here: Max-Min RFU normalised activation; some inactives read as strong as hits;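 span of the calcium signal over five minutes; 0% = vehicle and 100% = native peptide agonist; compound fluorescence can raise it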
An asterisk follows results filed as active; & = joins results of further samples.

SMILES | NPYLR7 agonist | NPYLR7 agonist max-min
Cc1cc(NC(=O)CN(C)C(C)c2cccs2)no1 (centres undefined) | 9 | 4
COc1ccc(NS(=O)(=O)N(C)C)c(OC)c1 | 2 | -1
CSc1ncc(CNCCc2cccc(Cl)c2)c(N2CCCC(C)C2)n1 (centres undefined) | -2 | -12
CCN1CCC(NC(=O)CN2CCCC(c3nnc4n3CCCCC4)C2)CC1 (centres undefined) | 1 | 8
CCn1nnc2c(SCC(N)=O)ncnc21 | 0 | 12
CCOC(=O)C1(CCc2ccccc2)CCN(C(=O)CCn2cnc3ccccc32)CC1 | 13 | 8
Cc1ccc(-n2cc(CN3CCN(Cc4ccccc4F)C(CCO)C3)cn2)cc1 (centres undefined) | -6 | -6
CCOc1ccc(C(C2Sc3nc(C)nn3C2=O)N2CCN(C(C)=O)CC2)cc1OC (centres undefined) | -6 | -10
COc1ccc(-n2c(=O)c3ccccc3n(CC(=O)N3CCOCC3)c2=O)cc1 | 12 | 23
COCCCN(CC(=O)N(CCc1ccc(OC)c(OC)c1)Cc1sccc1C)C(=O)c1cccc(Br)c1 | -5 | 4
CC(C)c1ccc2c(c1[N+](=O)[O-])C(=O)c1ccccc1C2=O | -2 | -5
Cc1ccc(-c2nc(CN(Cc3c(C)nn(C)c3C)C(C)C)c(C)o2)o1 | -12 | -16
Fc1ccccc1OC1OCCOC1Oc1ccccc1F (centres undefined) | 2 | 0
CCOCCCn1c(SCc2ccc(OC)c(C(F)(F)F)c2)nc2cc(C(=O)OCC)ccc21 | 3 | 1
CCOc1cccc(COC(=O)c2cc(C)nn2C)n1 | -2 | -5
Cn1cc(CN2CCN(Cc3ccccc3F)C(CCO)C2)c2ccccc21 (centres undefined) | -7 | -8
Cc1nc(NCCNC(=O)c2ccco2)cc(N2CCOCC2)n1 | 1 | -2
Cc1ccc(CN(Cc2ccccc2)Cc2nc(C(=O)N3CCCC3)co2)c(C)c1 | 12 | 22
Cc1cc(N2CCC(CO)(CC3CCCCO3)CC2)nc2ccccc12 (centres undefined) | 14 | 11
CCn1nnc2c(N3CCN(C=O)CC3)ncnc21 | 10 | 4
CC(O)CNc1ncnc2c1c(-c1ccccc1)cn2-c1ccc(Cl)cc1 (centres undefined) | -1 | -2
COCC(C)NCc1c(C)nn(-c2ccc(F)cc2)c1C (centres undefined) | 5 | 2
CC(C)(C)c1ccc(C(=O)N2CCN(C(C(=O)NC3CC3)C3CCCC3)CC2)cc1 (centres undefined) | -9 | -8
COc1ccc(/C=C2\SC(=Nc3ccccc3)N(C3CCCC3)C2=O)cc1 | -7 | -15
Cc1noc(-c2cccc(F)c2)c1C(=O)NCC1CCCO1 (centres undefined) | -4 | 3

The closing seven compounds of the part before lead into the next.
SMILES | NPYLR7 agonist | NPYLR7 agonist max-min
Cc1cc(N2CCC(CO)(CC3CCCCO3)CC2)nc2ccccc12 (centres undefined) | 14 | 11
CCn1nnc2c(N3CCN(C=O)CC3)ncnc21 | 10 | 4
CC(O)CNc1ncnc2c1c(-c1ccccc1)cn2-c1ccc(Cl)cc1 (centres undefined) | -1 | -2
COCC(C)NCc1c(C)nn(-c2ccc(F)cc2)c1C (centres undefined) | 5 | 2
CC(C)(C)c1ccc(C(=O)N2CCN(C(C(=O)NC3CC3)C3CCCC3)CC2)cc1 (centres undefined) | -9 | -8
COc1ccc(/C=C2\SC(=Nc3ccccc3)N(C3CCCC3)C2=O)cc1 | -7 | -15
Cc1noc(-c2cccc(F)c2)c1C(=O)NCC1CCCO1 (centres undefined) | -4 | 3
COc1ccc2c(c1)CC(CNC(=O)C(C)Oc1ccccc1)O2 (centres undefined) | 26 | 33
CC(=O)N1CCC(N(C)CCCc2cnn(C)c2)CC1 | 8 | -1
Cc1nc2c(c(NC3Cc4ccccc4C3)n1)CNC2 | 3 | 2
CC(Sc1nnc(-c2ccc(Cl)cc2)o1)C(=O)N1CCCCCC1 (centres undefined) | 7 | 2
Cc1cc(=O)[nH]c2c1c(=O)[nH]n2C1CCOC(C)(C)C1 (centres undefined) | 11 | 3
CNC(=O)CN(C)C1CCC(OC)CC1 (centres undefined) | 17 | 8
O=CN1CCCN(C(=O)c2ccc(-c3cc(-c4ccc(Cl)cc4Cl)[nH]n3)cc2)CC1 | -4 | 3
CC(C)C(=O)NCCNc1ccc(Nc2ccncc2)nn1 | 14 | 3
COc1cc(Cl)c(S(=O)(=O)N2CCN(c3cccc(C)c3C)CC2)cc1Cl | -4 | -11
CCOC(=O)C1=C(C)NC2=C(C(=O)CCC2)C1c1cc2c(cc1[N+](=O)[O-])OCO2 (centres undefined) | -5 | -11
COc1ccc(NC(=O)c2cc(Cl)ccc2O)cc1 | -14 | -18
Fc1ccccc1-n1cnnc1SCc1csc(-c2ccccc2)n1 | 6 | 6
COc1cc(C)c(C)cc1S(=O)(=O)NCCc1csc2nc(-c3cccc(F)c3)nn12 | 2 | 1
CCSc1ccccc1C(=O)N1CCN(S(=O)(=O)c2ccc(Cl)c(Cl)c2)CC1 | -6 | -7
COC(=O)C1CCN(C(=O)CC2CSc3ncc(C)c(=O)n32)CC1 (centres undefined) | 0 | -2
CC(=O)CCc1ccc(Oc2cc([N+](=O)[O-])cc3c2C(=O)Nc2ccccc2O3)cc1 | 7 | 4
CN1CCc2cc(Cl)c(O)cc2[C@@H](c2ccccc2)C1 | -3&0 | -7&-33
CCCn1cc(C(=O)N2CCN(c3cccc(Cl)c3)CC2)c2nn(-c3ccccc3)c(=O)c-2c1 | 9 | 8
CC1(C)S[C@@H]2[C@H](NC(=O)[C@H](NC(=O)N3CCNC3=O)c3ccccc3)C(=O)N2[C@H]1C(=O)O | -1 | -7
Nc1nnc(CC(=O)NCCN2CCCc3ccccc32)s1 | 5 | 5
O=C(O)C[C@@H]1CCN(C(=O)Cc2ccccc2)C[C@@H]1CCN1CCNCC1 | -5 | -13
O=S(=O)(Nc1cc(C2CC2)nn1-c1ncccn1)c1cccs1 | 3 | -1
Cc1c(C(=O)OC(C)C)oc2c1C(=O)CC(c1ccccc1F)C2 (centres undefined) | 0 | -2
CC1=NOC(C(=O)NCCc2c[nH]c3c(C)cccc23)C1 (centres undefined) | -1 | -2
CC1C(=O)N(c2ccc3c(c2)OCO3)CCN1C(=O)c1ccc(F)cc1 (centres undefined) | 24 | 18

Molecules from the list above containing two or more sulfur atoms (four):
SMILES | NPYLR7 agonist | NPYLR7 agonist max-min
Fc1ccccc1-n1cnnc1SCc1csc(-c2ccccc2)n1 | 6 | 6
COc1cc(C)c(C)cc1S(=O)(=O)NCCc1csc2nc(-c3cccc(F)c3)nn12 | 2 | 1
CCSc1ccccc1C(=O)N1CCN(S(=O)(=O)c2ccc(Cl)c(Cl)c2)CC1 | -6 | -7
O=S(=O)(Nc1cc(C2CC2)nn1-c1ncccn1)c1cccs1 | 3 | -1

Additional compounds follow.
SMILES | NPYLR7 agonist | NPYLR7 agonist max-min
Cc1ccccc1C1(O)CCN(C(=O)c2cc(Cl)c[nH]c2=O)C1 (centres undefined) | -2 | -5
CCOC(=O)N1CCN(C(c2ccncc2)c2c(O)cc(C)n(Cc3ccco3)c2=O)CC1 (centres undefined) | 11 | 3
CO[C@H]1CN(Cc2cc3ccccc3o2)[C@H]2Cc3c(n(C)c4ccccc34)[C@H]1C2 | 32 | 31
O=C(O)c1ccc2c(c1)n(CCN1CCOCC1)c(=O)n2C1CCCCC1 | 2 | 0
COC(CNC1CCN(C(=O)c2ccccc2)CC1)c1cccs1 (centres undefined) | 9 | -1
O=C(Nc1nc(-c2ccc3c(c2)OCO3)cs1)c1cc2ccccc2oc1=O | -1 | 0
CC(C)(C)NC(=O)Cn1c(-c2nnco2)cc2ccccc21 | -3 | -3
CC(C)CC(=O)N1CCCC1C(=O)Nc1nnc(-c2ccc(N(C)C)cc2)s1 (centres undefined) | 14 | 20
CC(C)CNc1ccc2c(n1)C(=O)N([C@H](C)C(=O)NC1CCC(O)CC1)C2 (some centres undefined) | -2 | -1
COC(=O)c1c(C)nsc1NC(=O)N(C)C(C)Cc1ccc(OC)cc1 (centres undefined) | -1 | -3
CCOc1ccc(Br)cc1C=C1C(=O)NC(=O)NC1=O | -10 | -18
Cc1cc2c(cc1C(=O)N1CCCC(O)(CO)C1)OCCO2 (centres undefined) | 5 | 5
CCN1CCN(C(=O)c2ccc(N3CCC(NCCc4ccc(C(F)(F)F)cc4)CC3)cc2)CC1 | 0 | -8
CCOc1ccc(CN(C)C(=O)c2n[nH]c(=O)c3ccccc23)cc1 | 10 | 9
COc1ccc(-c2cc(-c3ccc(C)c(C)c3)nc3sc(C(N)=O)c(N)c23)cc1OC | 0 | -3
COc1ccc(-c2csc(C)n2)cc1CC(=O)O | 4&-23 | 3&-18
COc1ccc(CCN(C)c2cc(Cl)nc(SCC(=O)NC(C)CCc3ccccc3)n2)cc1OC (centres undefined) | 32 | 27
Cc1cccnc1C(c1ccc(F)cc1)N(C)C(=O)C1CCN(C(=O)CCC2CCCC2)CC1 (centres undefined) | 2 | -9
Cn1nc(C(=O)Nc2sccc2C(N)=O)ccc1=O | 6 | 2
CC(C)C(=O)COc1cccn2cc(C(C)C)nc12 | -12 | -14
CCOc1ccc(C)cc1S(=O)(=O)NCc1ccc2c(c1)OCO2 | 2 | -4
CC/C=C(/C)C(=O)Nc1ccc(-n2nccn2)cc1 | 0 | -2
CCOC(=O)N1CCN(C(=O)CC(c2ccc(F)cc2)c2cn(Cc3ccccc3)c3ccc([N+](=O)[O-])cc23)CC1 (centres undefined) | 15 | 10
O=C(NC1CC1)C1CCCN(C2CCN(C(=O)c3cc(-c4ccccc4)n[nH]3)CC2)C1 (centres undefined) | -4 | -8
Cc1ccc(S(=O)(=O)NCC2COc3ccccc3C2)cc1F (centres undefined) | 6&6 | 4&5

A section from the list above:
SMILES | NPYLR7 agonist | NPYLR7 agonist max-min
CCOc1ccc(C)cc1S(=O)(=O)NCc1ccc2c(c1)OCO2 | 2 | -4
CC/C=C(/C)C(=O)Nc1ccc(-n2nccn2)cc1 | 0 | -2
CCOC(=O)N1CCN(C(=O)CC(c2ccc(F)cc2)c2cn(Cc3ccccc3)c3ccc([N+](=O)[O-])cc23)CC1 (centres undefined) | 15 | 10
O=C(NC1CC1)C1CCCN(C2CCN(C(=O)c3cc(-c4ccccc4)n[nH]3)CC2)C1 (centres undefined) | -4 | -8
Cc1ccc(S(=O)(=O)NCC2COc3ccccc3C2)cc1F (centres undefined) | 6&6 | 4&5

Other structures follow:
SMILES | NPYLR7 agonist | NPYLR7 agonist max-min
CNc1ncc(-c2cccc(CN3CCOCC3)c2)c(-c2ccc(C)cc2)n1 | 22 | 12
C=CCN1C(=O)NC(=O)/C(=C/c2ccc(N(CC)CC)cc2)C1=O | 6 | 4
Cc1cc(C)n(CC(=O)NNC(=O)C2CC3CCC2C3)n1 (centres undefined) | 37 | 36
Cc1nn(Cc2ccccc2)c(C)c1CNS(=O)(=O)c1ccc(Cl)cc1C(F)(F)F | 4 | -1
CC(C)Cc1cc(C(=O)N2CCCC2c2cc(C(C)C)on2)n(C)n1 (centres undefined) | 14 | 7
CCn1c(CC2CCN(c3cnc4ccccc4n3)CC2)nn(C)c1=O | -2 | -2
Cc1c(C(F)(F)F)nc(-c2ccc(CN(C)Cc3cnn(C)c3)cc2)[nH]c1=O | -3 | 9
CCc1ccc(C(C2Sc3nc(CC)nn3C2=O)N2CCN(C)CC2)cc1 (centres undefined) | -4 | -9
CCc1cc(Oc2ccc3c(c2)OCO3)nc(SCc2ccc(F)c(F)c2)n1 | 2 | 6
C=CCNC(=O)NC1CCN(c2ccccc2C(=O)N2CCc3ccccc3C2)CC1 | -13 | 8
Cc1ccc(CN(CCc2ccccc2)C(=O)CN(C(=O)Nc2cccc(Cl)c2)C2CC2)o1 | 1 | 6
CCCOc1ccc(C(=O)N2CCC3(CC2)CNC(=O)C3)cc1Cl | 3 | 0
C(=C1Cc2cccc3cccc1c23)c1ccccc1 | 6 | 7
O=C(CSc1nnc2ccc(-c3ccc(F)cc3)nn12)N1CCN(c2ccccc2)CC1 | -21 | -21
Cc1ccc(C(=O)Nc2ccc(NC(=O)CC3CNCCO3)cc2)o1 (centres undefined) | 0 | 17
CCCOc1ccccc1C1CC(=O)Nc2c1c(C)nn2-c1ccc2nncn2n1 (centres undefined) | 1 | 0
Cc1cc(CN2CC3(CCNCC3)CC2C(=O)O)oc1C (centres undefined) | 1 | -3
O=C(NCC1CCCO1)c1n[nH]c2c1CN(C(=O)c1ccc([N+](=O)[O-])cc1)CC2 (centres undefined) | 5 | 0
CCN(CC)c1onc(-c2ccccc2)c1CN(CCCOC)C(=O)c1cccs1 | 3 | 5
C#CCN(Cc1ccco1)C(=O)c1cccc(C(F)(F)F)c1 | -1 | 11
COCCn1c(-c2ccc(OC)cc2)c[nH]c1=S | -13 | -17
CNC(=O)[C@@H]1C[C@@H](N)CN1C(=O)C1(C(F)(F)F)CC1 | 6 | 4
Cc1cc(C)c2sc(N(Cc3ccco3)C(=O)c3cc(C)no3)nc2c1 | 4 | 4
Cn1ccnc1-c1ccccc1C(=O)N1C[C@@H]2[C@H](C1)[C@H]1CC[C@@H]2O1 | 31 | 15
CSCC(=O)N1CCCCC1c1ncc(-c2ccc(C)cc2)[nH]1 (centres undefined) | 5 | 4
Cc1ccc(NC(=O)NC2CCN(c3ccccc3C(=O)NC3CCCc4ccccc43)CC2)cc1 (centres undefined) | 0 | 10
Cc1c(-c2ccccc2F)[nH]c2ccc(CNC(=O)C3CCCN3C(N)=O)cc12 (centres undefined) | -1 | -2

High-throughput results: PubChem, Fisher Drug Discovery Resource Center

Some of the compounds tested. The share of hits here may be higher or lower than overall.
